# Mtb H37Rv = M. tuberculosis H37Rv growth inhibitors, H37Rv strain (AID 1626); M. tuberculosis H37Rv growth inhibition; higher % means a stronger effect; inhibition, % at 10 µM; hits with a dose series show IC50 in µM; 0.95% of 220,000 active;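 active means confirmed in a dose series; inconclusive means inhibition above 80% but not taken into the dose series; inactive means below 80% or under 30% at every dose of the series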;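 further: bacteria incubated seven days before Alamar blue readout; 0% = bacteria only wells and 100% = bacteria with antibiotic wells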
# YopH inh = YopH (Yersinia) phosphatase inhibition | 0.16% of 140,000 active | inhibition, %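 (about 10 µM by stock and volumes)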 | fluorescence Ex485/Em525;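 active means inhibition of 50% or more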;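 further: controls were vehicle for no effect and minimum signal wells for full effect; inactives centre near -20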
# Mtb bLac sens = beta-lactam sensitization of Mtb H37Rv; M. tuberculosis H37Rv growth with meropenem, percent inhibition; hits of this screen are not shown here; inhibition, % at 25 µM; 0.27% of 330,000 active;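 active means about 74% or more and at least 40 points above the plate without the antibiotic, then above 30% in a dose series; inconclusive means first-round hits that could not be retested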;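 further: growth measured after seven days incubation then overnight dye step; 0% = bacteria only wells and 100% = bacteria with antibiotic; twin plates without the antibiotic show which effects depend on it; some results filed as inactive read as strong as hits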
# RecA intein inh = blocks M. tuberculosis RecA intein splicing. inhibition, %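 (about 9 µM by stock and volumes)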. 0.75% of 290,000 active. AID 2221. P9WHJ3. cell-free RecA intein splicing, fluorescence; in the data active means inhibition above about 30%; inconclusive means no clear call, values can overlap the other calls;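 further: 0% = vehicle wells and 100% = reference inhibitor control wells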
# Target sequence (P9WHJ3 whole entry, looked up): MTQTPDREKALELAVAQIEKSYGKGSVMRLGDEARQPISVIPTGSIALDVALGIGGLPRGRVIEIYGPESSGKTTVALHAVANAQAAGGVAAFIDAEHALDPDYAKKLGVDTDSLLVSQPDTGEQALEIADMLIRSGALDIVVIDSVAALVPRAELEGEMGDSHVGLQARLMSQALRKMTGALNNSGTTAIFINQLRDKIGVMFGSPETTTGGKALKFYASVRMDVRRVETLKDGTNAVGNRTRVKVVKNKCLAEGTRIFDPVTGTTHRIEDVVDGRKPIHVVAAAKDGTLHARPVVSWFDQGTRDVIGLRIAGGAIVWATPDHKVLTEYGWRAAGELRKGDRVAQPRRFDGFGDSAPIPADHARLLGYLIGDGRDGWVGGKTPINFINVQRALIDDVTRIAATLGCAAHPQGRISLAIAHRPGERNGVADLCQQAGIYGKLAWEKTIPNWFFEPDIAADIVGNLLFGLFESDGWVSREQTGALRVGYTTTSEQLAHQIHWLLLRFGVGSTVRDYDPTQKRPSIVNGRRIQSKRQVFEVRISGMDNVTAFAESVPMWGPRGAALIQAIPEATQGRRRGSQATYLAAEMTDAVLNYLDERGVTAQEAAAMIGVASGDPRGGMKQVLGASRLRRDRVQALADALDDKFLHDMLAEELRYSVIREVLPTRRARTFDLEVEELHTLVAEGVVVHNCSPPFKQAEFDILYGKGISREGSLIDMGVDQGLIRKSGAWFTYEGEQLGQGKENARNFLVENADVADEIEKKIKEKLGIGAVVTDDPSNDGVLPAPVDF
# Arbovirus anti = antivirals against arbovirus infection; arbovirus infection cell-based antiviral screen; 0.37% of 200,000 active; inhibition, % at 10 µM;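 active means inhibition from about 30%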;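 further: bluetongue infection of BSR cells; cell survival read as ATP light after 72 h; 0% = infected wells without compound and 100% = uninfected wells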
# Arbovirus anti repeat = also measured in Arbovirus anti; calls as there; inhibition, %; measured here: 10K subset replicate screen; many hits read low in the repeat;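 first of two repeat runs on a subset; 0% = infected and 100% = uninfected wells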
# Active calls of the source: *; u = inconclusive; x = no result given. Only part of the results is shown, so the mix of outcomes need not match the whole.
SMILES,Mtb H37Rv,YopH inh,Mtb bLac sens,RecA intein inh,Arbovirus anti,others
COc1ccc(CNC(=O)CCNS(=O)(=O)c2ccc3c(c2)oc(=O)n3C)cc1,x,x,-16,1.4,x,
O=[N+]([O-])c1ccc(Oc2cccc3cccnc23)c([N+](=O)[O-])c1,29%,-21,53,-0.1,8,
O=C(CN1C(=O)NC2(CCCCCCC2)C1=O)NCc1ccc2c(c1)OCO2,-3%,-28,-7,0.5,3,
C/C=C/c1ccc(OCC(=O)O)c(OC)c1,-13%,x,0,-4.5,x,
CCCc1cc(=O)[nH]c(SCC(=O)N(Cc2ccccc2)C(C)C)n1,9%,-43,-3,1.1,2,
OCCNc1c2ccccc2nc2c(F)c(F)c(F)c(F)c12,u,-9,-5,-28,-41,
CCN(CC(=O)NC(C)C)C(=O)C(CCSC)NC(=O)c1ccccc1OC (centres undefined),3%,x,-1,-0.3,1,
O=C(CCc1ccccc1)Nc1ccnn1C1CCN(C/C=C/c2ccccc2)CC1,x,x,6,0.1,x,
CC(C)Cn1c(=O)c2sccc2n2c(CCCC(=O)NC3CCN(Cc4ccccc4)CC3)nnc12,x,x,3,17,x,
Cc1ccc(N2CC(NC(=O)C(=O)c3c(C)[nH]c4ccccc34)CC2=O)cc1C (centres undefined),x,x,-6,4.2,x,
CCOC(=O)Nc1nnc(CCc2ccccc2)s1,0%,-31,23,0.1,4,
C=Cn1cc[n+](CC(=O)c2ccc(OC)c(OC)c2)c1,x,x,1,3.2,x,
O=C(Nc1ccccc1Cl)Nc1cccnc1Cl,-2%,x,-2,1.3,-2,
COc1cc2cc(-c3ccc(OC)c(OC)c3C)nc(N)c2cc1OC,x,x,-4,1.5,x,
COc1ccc(NS(=O)(=O)c2ccc(-c3n[nH]c(=S)n3Cc3ccccc3)cc2)cc1,-3%,x,0,2.1,x,
COc1cccc(CNC(=O)C2CCC(=O)N(CC3CCCCC3)C2)c1OC (centres undefined),x,x,-11,1.0,x,
O=C1C[C@@H](c2ccc(O[C@@H]3O[C@H](CO)[C@@H](O)[C@H](O)[C@H]3O)cc2)Oc2cc(O)ccc21,-5%,-33,4,-3.0,4,
O=C(CSc1nnc(C2COc3ccccc3O2)o1)NC1CCCCC1 (centres undefined),22%,-25,70,3.0,7,
CC(=O)N(C)c1ccc(NC(=S)NC(=O)/C=C/c2ccco2)cc1,x,x,2,0.2,x,
COc1ccc(C)cc1NC(=O)c1nnn(CCc2ccccc2)c1N,3%,-12,-1,0.1,-6,Arbovirus anti repeat=-8
c1ccc(-c2cn(C[C@H]3CC[C@@H]([C@@H]4CC[C@H](Cn5cc(-c6ccccn6)nn5)O4)O3)nn2)nc1,x,x,0,0.1,x,
O=C(O)c1ccc(S(=O)(=O)N(Cc2cccs2)CC2CCCO2)cc1 (centres undefined),7%,x,-8,-1.1,x,
Cc1ccc(C(=O)Nc2nc(=O)n(C(=O)C3CC3)s2)cc1,15%,-16,8,-2.0,13,
CSc1nc(Sc2ccccc2Cl)c2ccccc2n1,6%,-19,16,9.2,-13,
Cc1cccc(-n2nnnc2SCC(=O)NCCN2C(=O)CSC2=O)c1,-9%,-23,3,-0.8,-4,

# Further entries follow:
SMILES,Mtb H37Rv,YopH inh,Mtb bLac sens,RecA intein inh,Arbovirus anti,others
O=C(CN1C(=O)CCS(=O)(=O)c2ccccc21)Nc1ccc2c(c1)OCCO2,1%,-7,x,-3.9,1,
Cc1cccc(Nc2nnc(SCC(=O)Nc3ccc(C(=O)O)cc3)s2)c1,14%,x,-1,-4.6,8,
CNC(=O)c1c(NC(=O)C2=COCCO2)sc(C)c1C,x,x,-12,-1.2,x,
CC1(C)Oc2ccc3ccc(=O)oc3c2/C(=N/O)C1=O,x,x,-4,-2.2,x,
Fc1ccc(C(c2nnnn2Cc2cccs2)N2CCN(c3ccccc3)CC2)cc1 (centres undefined),-6%,-11,16,7.1,4,
COCCCn1c(=O)c2sccc2n(Cc2cccc(C)c2)c1=O,x,x,-10,1.2,x,
CCCOc1nc2c(c(=O)n(C)c(=O)n2C)n1CCC,1%,-20,3,0.1,2,Arbovirus anti repeat=8
CC(C)CNS(=O)(=O)c1ccc2c(c1)OCCO2,-1%,-21,3,0.5,6,
COc1cccc(CNS(=O)(=O)c2ccc3c(c2)oc(=O)n3C)c1,x,x,3,-0.6,x,
Cc1ccc(S(=O)(=O)N2CCC(C(=O)OCc3ccccc3)CC2)cc1C,x,x,96,7.2,x,
COC(=O)CCCC1=CC2=CC(=O)C(C)(OC(=O)c3cccs3)C(=O)C2=CN1Cc1ccco1 (centres undefined),-1%,x,-6,-3.3,x,
COc1ccccc1N1CCN(C(=O)C(=O)c2c[nH]c3ccccc23)CC1,x,x,4,0.7,x,
COc1cccc(NC(=O)c2ccc3c(c2)N(CC(=O)N2CCOCC2)C(=O)C(C)(C)O3)c1,x,x,-8,-0.9,x,
O=S(=O)(c1cc(Cl)ccc1Cl)N1CCCC1,-3%,-10,-14,1.6,4,
Cc1cccc2c1nc(-c1ccccc1)n1nnnc21,4%,-22,u,1.1,55*,
NC(=O)N/N=C/c1cccc(OCc2ccc(F)cc2)c1,2%,x,1,-0.2,-7,
COc1ccc(-c2[nH]ncc2CN2CCN(C(=O)c3cccs3)CC2)c(F)c1,x,x,-3,-0.9,x,
CCC(=O)Nc1ccc(C2=Nn3c(nnc3C(C)C)SC2)cc1,x,x,12,0.1,x,
CCOCCCNC(=O)C1CCCN1C(=O)Nc1ccccc1[N+](=O)[O-] (centres undefined),-1%,x,-8,3.4,-4,
C/C(=N\NC(=O)CNC(=O)c1ccccc1Br)c1ccco1,x,x,2,-1.3,x,
CC1(C(=O)NCCN2CCOCC2)C=CCN1C(=O)c1ccccc1 (centres undefined),-5%,-24,0,-1.6,16,
Cc1ccc(/C=N/NC(=O)Cn2nnc(N)n2)cc1,-6%,x,-6,-13,x,
O=C(CN1CCN(c2cccc(Cl)c2)CC1)Nc1ccc([N+](=O)[O-])cc1C(=O)Nc1ccccc1F,0%,-13,-2,2.5,-10,
O=c1oc2cc(Cl)ccc2n1CSc1nc2ccccc2s1,12%,16,8,16,-5,
CCCC(=O)Nc1ccc2c(c1)nc1n2CCOC1,-2%,-15,-9,-11,-2,

# Carrying on:
SMILES,Mtb H37Rv,YopH inh,Mtb bLac sens,RecA intein inh,Arbovirus anti,others
O=C(O)CC1OCC=C2CN3CCC45C6=CC(=O)C(=O)C([N+](=O)[O-])=C6NC4C1C2CC35 (centres undefined),-14%,x,u,85*,x,
Cc1nn(-c2ccc(C(=O)O)cc2)c(=O)c2ccccc12,-3%,-27,1,-4.1,-1,
CC(C)(C)NCCOCCOc1ccccc1-c1ccccc1,-5%,-11,-5,-3.6,-11,
CCOC(=O)C(NC(=O)c1cccc(Cl)c1)(OCc1ccc(F)cc1)C(F)(F)F (centres undefined),-4%,-19,3,3.2,49*,
CO/N=C(/CS(=O)Cc1ccccc1Cl)c1ccc(Cl)cc1Cl (centres undefined),0%,3,-10,5.3,0,
O=C(NCCOc1ccccc1)c1ccccc1,4%,12,7,0.0,-7,
COc1ccccc1C(=O)NNC(=O)Cc1ccccc1,x,x,2,-1.3,x,
CCCCC1OC23CCCCC2C(C#N)(C(=N)O3)C1(C#N)C#N (centres undefined),-7%,2,-8,-270,17,
O=C(c1cccs1)N1CCN(C(=O)C2CCCO2)CC1 (centres undefined),-8%,-5,2,-0.8,2,
COc1ccc(S(=O)(=O)/C(C#N)=C/Nc2cccc(OC)c2)cc1,x,x,-3,0.9,x,
CC(Oc1ccc(Cl)cc1Cl)C(=O)Nc1ccc(N2CCN(C)CC2)cc1 (centres undefined),7%,-11,1,-0.4,8,
CCOC(CNC(=O)C(=O)NCC(c1ccco1)N1CCN(c2ccc(OC)cc2)CC1)OCC (centres undefined),x,x,1,-4.0,x,
CSc1nc(-c2ccco2)nn1C(=O)CCc1ccccc1,2%,1,2,24,4,
Cn1c(=O)c2c(nc(SCC(=O)N3CCCCCC3)n2C)n(C)c1=O,-5%,3,0,-0.6,-3,
O=C(O)c1cc(Cl)c(Cl)cc1C(=O)Nc1cccnc1,0%,x,1,1.1,5,
CCOc1ccc(CN(C)C(=O)CNC(=O)c2cc(OC)c(OC)c(OC)c2)cc1,x,x,-1,0.8,x,
COc1ccc([C@H](C)NC[C@H](O)c2ccc(O)c(NC=O)c2)cc1,-7%,x,-3,-1.2,19,
O=C(c1ccc(S(=O)(=O)N2CCCCC2)cc1)N(c1ccccn1)C1CCCCC1,-10%,x,-3,2.8,x,
O=C(COc1ccc(S(=O)(=O)Nc2ccccc2)cc1)N1CCOCC1,15%,-25,-7,-1.1,0,

# 2 compounds drawn at random from the list so far:
SMILES,Mtb H37Rv,YopH inh,Mtb bLac sens,RecA intein inh,Arbovirus anti,others
O=C(O)CC1OCC=C2CN3CCC45C6=CC(=O)C(=O)C([N+](=O)[O-])=C6NC4C1C2CC35 (centres undefined),-14%,x,u,85*,x,
CCCCC1OC23CCCCC2C(C#N)(C(=N)O3)C1(C#N)C#N (centres undefined),-7%,2,-8,-270,17,

# Grouped by structure: those above with a halogen (14)
SMILES,Mtb H37Rv,YopH inh,Mtb bLac sens,RecA intein inh,Arbovirus anti,others
OCCNc1c2ccccc2nc2c(F)c(F)c(F)c(F)c12,u,-9,-5,-28,-41,
O=C(Nc1ccccc1Cl)Nc1cccnc1Cl,-2%,x,-2,1.3,-2,
CSc1nc(Sc2ccccc2Cl)c2ccccc2n1,6%,-19,16,9.2,-13,
Fc1ccc(C(c2nnnn2Cc2cccs2)N2CCN(c3ccccc3)CC2)cc1 (centres undefined),-6%,-11,16,7.1,4,
O=S(=O)(c1cc(Cl)ccc1Cl)N1CCCC1,-3%,-10,-14,1.6,4,
NC(=O)N/N=C/c1cccc(OCc2ccc(F)cc2)c1,2%,x,1,-0.2,-7,
COc1ccc(-c2[nH]ncc2CN2CCN(C(=O)c3cccs3)CC2)c(F)c1,x,x,-3,-0.9,x,
C/C(=N\NC(=O)CNC(=O)c1ccccc1Br)c1ccco1,x,x,2,-1.3,x,
O=C(CN1CCN(c2cccc(Cl)c2)CC1)Nc1ccc([N+](=O)[O-])cc1C(=O)Nc1ccccc1F,0%,-13,-2,2.5,-10,
O=c1oc2cc(Cl)ccc2n1CSc1nc2ccccc2s1,12%,16,8,16,-5,
CCOC(=O)C(NC(=O)c1cccc(Cl)c1)(OCc1ccc(F)cc1)C(F)(F)F (centres undefined),-4%,-19,3,3.2,49*,
CO/N=C(/CS(=O)Cc1ccccc1Cl)c1ccc(Cl)cc1Cl (centres undefined),0%,3,-10,5.3,0,
CC(Oc1ccc(Cl)cc1Cl)C(=O)Nc1ccc(N2CCN(C)CC2)cc1 (centres undefined),7%,-11,1,-0.4,8,
O=C(O)c1cc(Cl)c(Cl)cc1C(=O)Nc1cccnc1,0%,x,1,1.1,5,
